Compound activity from PubChem.
Six1-Eya2 inh: Six1/Eya2 interaction inhibition. hit rate 0.56% among 360,000. AlphaScreen GST-Six1/His-Eya2 binding, biochemical; active compounds read low; control for the full effect not named in the record. Q15475+O00167. activity change, % (no concentration beside the values); in the data active = activity change below about -65%; inconclusive = about -30% to -65%; inactive = above about -30%; note: % is set by controls: 0 for no effect and ±100 for the full control effect
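Six1/Eya2 binding was read as AlphaScreen signal after compounds were pinned into GST-Six1 plus His-tagged Eya2 (5X stock 250/500 nM) in pH 8.0 Tris/NaCl/TCEP buffer, beads added, then incubated 1 h, 37 C, dark.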
CtBP-E1A inh: inhibitors of CtBP/E1A interaction. AlphaScreen GST-E1A/His-CtBP binding, 1536-well; active compounds read low; control for the full effect not named in the record. activity change, % (concentration not given with the values). hit rate 0.49% among 340,000. AID 651724; in the data active means activity change below about -65%; inconclusive means about -30% to -65%; inactive means above about -30%; note: % is set by controls: 0 for no effect and ±100 for the full control effect
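AlphaScreen with 125 nM GST-E1A and 125 nM His-CtBP (5X stocks) in Tris pH 8.0, 300 mM NaCl, BSA, Tween 20, TCEP. Compounds preincubated 2 h at 37 deg C, then glutathione donor/nickel acceptor beads added for 1 h at 37 deg C in dark.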
PINK1 expr mod: PINK1 expression modulation | PINK1 immunofluorescence, high-content cytometry, 24 h | Potency, µM (titrated, usually from 76.6 µM), inactives show at the highest dose activation (PINK1 increase), most hits filed as activators | hit rate 0.2% among 410,000 | AID 624263; active = well fitted activation curve with a large enough effect; inconclusive = small, poorly fitted or top-dose-only effect; inactive = flat fitted curve, though single readings scatter; cell line not stated here;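 note: potency is the fitted concentration of half-maximal effect; % of control where 0% means no effect; nearly all actives have a fitted effect of over 65% in size; a mitochondrial uncoupler was the plate control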
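A stable cell line was treated with compounds at 5 concentrations for 24 hours, with CCCP as control. PINK1 levels and mitochondrial localization were measured by immunofluorescence with mitochondrial, cell and nuclear markers after fixation, read by laser-scanning cytometry.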
D2 ag: activates the human D2 dopamine receptor; DiscoveRx PathHunter D2 beta-arrestin, luminescence, 90 min; 100% = 57 uM dopamine signal; activation, % (concentration not given with the values); hit rate 0.084% among 360,000; in the data active = activation above about 40%; inconclusive = about 15% to 40%; inactive = below about 15%; note: compound concentration not given in the record; the text of the record calls up to 30% inactive
Target sequence (P14416 whole entry, looked up): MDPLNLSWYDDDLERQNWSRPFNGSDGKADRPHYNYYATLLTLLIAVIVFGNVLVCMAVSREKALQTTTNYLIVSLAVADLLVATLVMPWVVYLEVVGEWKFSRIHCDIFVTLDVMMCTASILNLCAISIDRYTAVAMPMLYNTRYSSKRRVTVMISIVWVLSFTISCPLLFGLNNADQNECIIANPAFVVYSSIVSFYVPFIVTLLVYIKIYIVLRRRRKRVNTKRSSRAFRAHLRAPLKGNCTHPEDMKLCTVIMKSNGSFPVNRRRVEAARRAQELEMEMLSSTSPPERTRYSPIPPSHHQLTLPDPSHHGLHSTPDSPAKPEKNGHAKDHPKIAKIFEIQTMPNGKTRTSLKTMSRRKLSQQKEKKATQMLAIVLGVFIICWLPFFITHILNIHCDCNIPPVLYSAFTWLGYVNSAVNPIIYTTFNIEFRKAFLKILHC
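DiscoveRx PathHunter D2 beta-arrestin cells (2,100/well) attached overnight, then compound-stimulated 90 min at 37 C in HBSS/10 mM HEPES/0.1% Tween-20 buffer; beta-galactosidase complementation read by luminescence after 1 h at ambient temperature. Dopamine 57 uM final (EC100) as control.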
TRPML1 agonist: human mucolipin-1 channel agonism | TRPML1-expressing cells, Ca2+ dye fluorescence, FDSS; host cell line not named in the record; reference of the full effect not given here | activation, % (no concentration beside the values) | hit rate 0.12% among 410,000; in the data active = activation above about 50%; inconclusive = about 30% to 50%; inactive = below about 30%; note: 0% is about no effect; the text of the record puts the active cut at 80%
Target sequence (Q9GZU1 whole entry, looked up): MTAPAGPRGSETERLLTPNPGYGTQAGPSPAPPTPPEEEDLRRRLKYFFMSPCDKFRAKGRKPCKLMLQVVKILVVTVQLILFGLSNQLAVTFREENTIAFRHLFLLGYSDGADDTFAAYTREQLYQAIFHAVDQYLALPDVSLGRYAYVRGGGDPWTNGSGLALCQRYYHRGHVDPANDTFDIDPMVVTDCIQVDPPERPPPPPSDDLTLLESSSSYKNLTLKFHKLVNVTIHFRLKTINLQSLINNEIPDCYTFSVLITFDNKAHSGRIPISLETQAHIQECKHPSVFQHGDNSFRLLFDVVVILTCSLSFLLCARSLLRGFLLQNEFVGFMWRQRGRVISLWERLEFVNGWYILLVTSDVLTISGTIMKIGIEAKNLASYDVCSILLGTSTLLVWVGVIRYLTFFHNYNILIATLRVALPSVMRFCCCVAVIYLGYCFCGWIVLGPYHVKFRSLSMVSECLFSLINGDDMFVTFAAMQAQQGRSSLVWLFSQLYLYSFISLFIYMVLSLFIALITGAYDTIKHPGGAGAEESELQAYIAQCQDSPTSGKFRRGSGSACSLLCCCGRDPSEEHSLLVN
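TRPML1-DL cells, Tet-induced overnight (~16 h, 37 degrees C), loaded 45-90 min at room temperature with Ca8 no-wash calcium dye plus quencher. FDSS fluorescence: 10 s baseline, compound pin-transfer, 110 s agonist read, then EC80 54-4 (4uM final) and 110 s antagonist read.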
D2 potentiator: human D2 receptor positive allosteric modulation; DiscoveRx D2 beta-arrestin cells, luminescence, 90 min; 100% = 57 uM dopamine signal; P14416; AID 624464; potentiation, % (concentration not given with the values); hit rate 0.23% among 360,000; active = potentiation of 50% or more; inconclusive = 30% to 50%; inactive = 30% or less;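 note: compound concentration not given in the record; tested on top of an EC20 dose of dopamine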
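D2 cells co-treated with compound plus 50 nM dopamine (EC20) for 90 min at 37 deg C to detect potentiation. Beta-arrestin recruitment was read as enzyme-fragment luminescence after 1 h at ambient temperature. Full response was set by 57 uM dopamine.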
Numbers without * were called inactive; ? = inconclusive; · = not tested or not shown; & = joins results of further samples; [ ] = another dose, or the depositor's remark.

SMILES	Six1-Eya2 inh	CtBP-E1A inh	PINK1 expr mod	D2 ag	TRPML1 agonist	D2 potentiator
COc1ccc(NC(=O)CSCC(=O)Nc2nnc(C)s2)cc1	-2	1	-1.4%	-2.1	-0.8	-25
COc1cc(CNc2ncc(-c3ccc(Cl)cc3)n2C)cc(OC)c1OC	-17	·	0.2%	-2.8	-0.3	-82
COC(=O)C1=CN(Cc2ccc(OC)cc2)C=C(C(=O)OC)C1c1ccsc1	37	45	1.0%	-2.8	3.4	3
C=C(C)COc1ccc(-c2[nH]ncc2-c2ccc(OC)c(OC)c2)c(O)c1	-25	-5	7.9%	0.0	-0.1	20
Cc1cc(C(=O)N2CCC2(C)C(=O)O)c(C)o1 (configuration not stated)	12	6	3.5%	-2.6	0.1	-4
O=C(NN1C(=O)C2C3C=CC([C@H]4CC34)[C@@H]2C1=O)c1ccc(Br)cc1 (some centres not stated)	-3	·	2.7%	-4.7	-0.5	-21
CC(=O)OCCCN1C(=O)c2ccc(Br)cc2C1=O	2	10	-2.3%[38.3 µM]	-0.1	0.5	-2
CC1CN(C(=O)CCC(=O)NCCCN2CCC(Cc3ccccc3)CC2)c2cc(Cl)ccc2O1 (configuration not stated)	2	2	-2.0%	-4.4	0.6	-7
COCC(=O)Nc1ccc(S(=O)(=O)Nc2cc(C)nc(C)n2)cc1	2	9	7.1%[38.3 µM]	-2.0	-0.7	-15
Cc1ccc(-n2c(SCC(=O)NCc3ccco3)nc3c([nH]c4ccccc43)c2=O)cc1	9	0	1.8%	-5.7	-0.1	3
Cc1ccc(OCC(=O)Nc2ccc(CN3CCOCC3)cc2)cc1C	20	10	1.2%	-6.4	0.1	-7
Cc1ccc(C)c(CSc2nnc(C)c(=O)[nH]2)c1	11	0	3.0%	-2.0	-0.3	1
O=C1CC2(CCCC2)Oc2ccccc21	-6	-14	1.7%	-1.3	0.4	-15
COc1cccc(OCc2cc(C(=O)N(Cc3nccn3C)C(C)C)no2)c1	3	-10	2.9%	1.2	0.1	-12
c1ccc(Cc2nc3ccccc3s2)cc1	9	11	4.1%	0.7	-0.4	-7
C/C(=N\NC(=O)CSc1nc2ccccc2s1)c1cccnc1	2	-1	-0.1%	-1.1	-0.6	-3
CCNC(=O)NC(=O)COC(=O)c1cccc(S(=O)(=O)N2CC3(C)CC2CC(C)(C)C3)c1 (configuration not stated)	-2	0	-2.8%	-1.9	2.6	-8
CC(=O)Nc1ccc2c(COC(=O)[C@@H](NS(=O)(=O)c3ccc(C)cc3)C(C)C)cc(=O)oc2c1	2	-6	2.6%	-6.5	0.3	-7
Cc1ccc(CNC(=O)c2ccc(N3CCC4(CC3)CC(c3cccc(Br)c3)=NO4)c(NC(=O)c3ccco3)c2)cc1	-2	1	-0.8%	-4.8	-0.5	-7
CSc1nc(C)cc(OCNC(=O)c2cccs2)n1	2	-4	-0.5%	-4.8	-0.8	-17

The final six records of the part before come first, to join the parts.
SMILES	Six1-Eya2 inh	CtBP-E1A inh	PINK1 expr mod	D2 ag	TRPML1 agonist	D2 potentiator
c1ccc(Cc2nc3ccccc3s2)cc1	9	11	4.1%	0.7	-0.4	-7
C/C(=N\NC(=O)CSc1nc2ccccc2s1)c1cccnc1	2	-1	-0.1%	-1.1	-0.6	-3
CCNC(=O)NC(=O)COC(=O)c1cccc(S(=O)(=O)N2CC3(C)CC2CC(C)(C)C3)c1 (configuration not stated)	-2	0	-2.8%	-1.9	2.6	-8
CC(=O)Nc1ccc2c(COC(=O)[C@@H](NS(=O)(=O)c3ccc(C)cc3)C(C)C)cc(=O)oc2c1	2	-6	2.6%	-6.5	0.3	-7
Cc1ccc(CNC(=O)c2ccc(N3CCC4(CC3)CC(c3cccc(Br)c3)=NO4)c(NC(=O)c3ccco3)c2)cc1	-2	1	-0.8%	-4.8	-0.5	-7
CSc1nc(C)cc(OCNC(=O)c2cccs2)n1	2	-4	-0.5%	-4.8	-0.8	-17
Cc1ccccc1Nc1ccc(S(=O)(=O)N2CCOCC2)cc1[N+](=O)[O-]	?	?	2.1%	-0.4	0.0	0
Cc1ccc(S(=O)(=O)N(CC(=O)NCCSC2CCCCC2)c2ccccc2F)cc1	1	4	8.8%	1.7	0.7	8
CCC(=O)NCCn1ccc2ccccc21	1	4	-1.4%	-7.3	-0.4	-4
COc1ccc(-c2cc(C)no2)cc1S(=O)(=O)NCc1ccc(OC(C)C)cc1	-2	0	3.3%&-0.3%	-4.4	-0.9&-0.3	-12
COc1ccc(C(C)(C)C)cc1NC(=O)COC(=O)C1=NNC(=O)CC1	3	10	1.2%	-3.3	-0.4	-8
CC(=O)Nc1ccc(NC(=O)CSc2nnc(C)n2-c2ccccc2)cc1	2	-10	0.1%	-5.2	1.5	-4
CCc1cccc(NS(=O)(=O)c2cccc3cccnc23)c1	-8	-9	8.3%	?	2.9	4
O=S(=O)(Nc1ccc2c(c1)OCCO2)c1ccc(F)c(F)c1	-2	-2	0.6%	-3.1	0.0	-1
CCCc1nnc(NC(=O)C(=O)NCCN(CC)CC)s1	11	·	0.6%	-6.1	-0.2	-17
C=CCc1cc(C)ccc1OCC(O)CN1CCN(c2ccccc2)CC1 (configuration not stated)	-16	-15	15%[38.3 µM]	6.0	1.2	-13
COc1c(Cl)cnn(-c2ccc(Cl)c(Cl)c2)c1=O	6	6	1.0%	3.4	0.2	5
C/C(=N\NC(N)=O)c1ccc(-n2ccnc2)cc1	-5	1	-2.8%	4.2	0.8	-8
COc1ccc2oc(C(=O)N3CCN(S(=O)(=O)c4ccc(F)cc4)CC3)c(C)c2c1	-2	-8	-2.4%	-4.7	3.4	-6
O=C(c1ccccc1)c1ccc(Sc2ccc([N+](=O)[O-])cc2)cc1	-7	-20	-0.5%	-3.0	·	-1
COc1cccc(NC(=O)CCSc2nnc3scc(-c4ccccc4)n23)c1	-4	-2	0.7%	1.4	1.1	-7
COc1ccc(NC(C(=O)Nc2cccc(C(C)=O)c2)c2ccccc2)cc1 (configuration not stated)	-18	?	2.0%	2.2	0.4	-13
Oc1ccccc1C=NNC(=S)NC1CC2C=CC1C2 (configuration not stated)	-77*	?	23%	3.1	1.6	-13
Cc1cccc(NC(=S)Nc2ccccn2)c1	3	-14	1.4%	-3.4	0.8	-3
O=C(CSc1nc2ccccc2n1CCc1ccccc1)c1ccc(O)c(O)c1	?	-7	7.9%	7.5	3.0	3
C=C(C)Cn1c(SCC(=O)O)nnc1-c1ccccc1	3	3	-1.9%	0.6	-0.9	-1

As a short view, 2 of the compounds above.
SMILES	Six1-Eya2 inh	CtBP-E1A inh	PINK1 expr mod	D2 ag	TRPML1 agonist	D2 potentiator
O=C(CSc1nc2ccccc2n1CCc1ccccc1)c1ccc(O)c(O)c1	?	-7	7.9%	7.5	3.0	3
C=C(C)Cn1c(SCC(=O)O)nnc1-c1ccccc1	3	3	-1.9%	0.6	-0.9	-1

(list continues)
SMILES	Six1-Eya2 inh	CtBP-E1A inh	PINK1 expr mod	D2 ag	TRPML1 agonist	D2 potentiator
COc1ccccc1C(=O)NCCCN1CCCC1=O	6	7	5.4%[38.3 µM]	-3.0	0.0	-2
O=C(C1CCCC1)N1CCN=C1SCc1cccc([N+](=O)[O-])c1	-4	5	3.6%	-0.2	2.4	-3
CCN(CC)C(=O)C1CCC(CNS(=O)(=O)c2cccc3nsnc23)CC1 (configuration not stated)	3	5	-1.2%	1.7	-0.7	0
Cc1cc(C(=O)Nc2c(F)cc(F)cc2Br)no1	4	5	2.9%[38.3 µM]	-2.3	1.1	0
C=CCOc1c(CNc2ccc3[nH]c(=O)[nH]c3c2)cccc1OC	-20	-20	2.1%	-0.7	0.6	1
CC(C)OC(=O)/C(=C\c1ccc2c(c1)c1ccccc1n2C)NC(=O)c1ccccc1	-9	-4	0.6%	-1.9	1.0	-9
CCc1ccc(NC(=O)C2CCN(S(=O)(=O)c3ccc4[nH]c(=O)ccc4c3)CC2)cc1	-11	-2	9.8%	1.7	1.8	0
COc1ccc(CCNC(=O)C(=O)NCC2OCCN2S(=O)(=O)c2ccc(C)cc2)cc1 (configuration not stated)	1	4	-0.5%	-1.3	0.3	-3
Cc1cc(C)cc(C(=O)NCC(=O)OCC(=O)N(C)c2ccccc2)c1	0	13	0.4%	-0.5	0.0	-6
Cc1c(Cl)cccc1NC(=O)CC1NCCNC1=O (configuration not stated)	6	1	-0.3%	-1.6	-0.6	-12
COc1cc(CNCc2ccccc2)c(Br)cc1OC1CCCC1	11	7	9.6%	-2.7	-0.2	-22
CCc1cc2c(=O)n(-c3ccc(Br)cc3)cnc2s1	2	8	-1.3%	-4.6	3.3	-22
COc1ccc(N=Nc2ccc(O)c3ncccc23)cc1	-86*	·	5.7%	-10	1.7	-17
CN(C(=O)c1ccc(S(=O)(=O)N(C)C)cc1)c1ccc2ccccc2c1	3	-4	0.2%	-2.5	-0.3	-3
COc1ccc(Cl)cc1NC(=O)C1CCN(S(C)(=O)=O)CC1	9	9	0.2%	6.1	0.3	-14
COc1ccc(-n2cnnc2SCC(=O)Nc2cc(C(C)(C)C)nn2-c2ccccc2)cc1	11	-2	-0.1%	-1.9	-0.3	6
CCOC(=O)c1[nH]n(-c2ccc(Cl)cc2)c(=O)c1C	-5	-8	-0.7%	-3.2	-0.6	-27
CCN1CCCC1CNC(=O)C1CCN(C(=O)c2cc3sccc3n2Cc2ccc(F)cc2)CC1 (configuration not stated)	-8	-2	0.6%	-1.2	1.3	-5
COc1ccccc1N(CC(=O)N/N=C(\C)c1ccc(F)cc1)S(=O)(=O)c1ccccc1	-1	34	13%	-0.3	0.3	-20
CS(=O)(=O)N1CCN(c2ccccc2NC(=O)c2ccc3ccccc3c2)CC1	-2	-2	-0.9%	-0.6	1.4	-6
Cc1cc(C)cc(N(CCC#N)C(=O)COC(=O)c2ccccc2SCC(=O)N2CCCC2)c1	0	-13	1.0%	6.8	0.5	6
Cc1cc(C)c2oc(C(=O)N(Cc3ccccc3)C3CCS(=O)(=O)C3)cc(=O)c2c1 (configuration not stated)	0	0	-1.8%	-3.2	-0.1	-7
CCC(C)NC(=O)CSc1nc2c(sc(=S)n2Cc2ccco2)c(=O)n1-c1ccccc1 (configuration not stated)	-2	3	17%	-1.6	2.9	-4
COc1cc(CN2CCNC(=O)C2CC(=O)N2CCCCO2)cc(OC)c1 (configuration not stated)	12	3	0.7%	0.3	-0.1	4
Cc1ccc(S(=O)(=O)N(C)c2ccc(OC(C)C(=O)N(C)c3ccccc3)cc2)cc1 (configuration not stated)	-4	4	0.5%	-3.7	-0.7	-22
CCC(c1nnnn1Cc1ccco1)N1CCC(C(N)=O)CC1 (configuration not stated)	3	-3	-0.9%	-3.8	0.1	3
O=C(NCCc1ccc(Cl)cc1)c1ccc2nc[nH]c2c1	-17	0	-0.5%	1.8	-0.4	-3
Cc1onc(-c2ccccc2)c1C(=O)N1CCC(C)CC1	4	0	-1.4%	-6.4	-1.0	-8
